Compound activity deposited in PubChem by ICCB-Longwood Screening Facility, Harvard Medical School.
CapD inh – Bacillus anthracis CapD inhibitors, primary screen, biochemical, fluorescence intensity | hit rate 0.23% among 140,000 | z-score (no concentration beside the values) | CapD gamma-glutamyltranspeptidase (Bacillus anthracis Ames Ancestor) | purified CapD enzyme, fluorescence intensity read-out; stronger effect = lower value; some hits fall short of the stated cut;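 active = z-score under -4 in either of two replicates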;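 note: stock transfer was 100 nL into about 40 µL; score is relative to mean and spread of the plate; one replicate is shown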
AID504770 – growth inhibition of E. coli YBA685, primary screen, V. cholerae RctB inhibitors; E. coli YBA685 rctB-dependent plasmid, OD600 growth, 3 h; stronger effect = lower value; z-score (concentration not given with the values); hit rate 0.27% among 130,000;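 active = z-score under -2 on both plates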;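 note: wells of about 30 µL received 100 nL stock; score is relative to mean and SD of the test wells; the first replicate is given; strong numbers were not always called active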
An asterisk follows results filed as active; / = not tested or not shown; & = joins results of further samples. Rows are unselected (roughly 0.39% active in at least one column).

SMILES | CapD inh | AID504770
Cc1cccc(Oc2ccccc2NC(=O)NC(C)(C)C)c1 | / | -0.35
CC(C)C1(C)C(=O)N=C2c3ccccc3C(=O)N21 (stereo not given) | 0.085 | -0.2
C=CCSc1nnc(-c2ccccc2N)c(=O)[nH]1 | -0.585 | 0.3
O=C(c1cccnc1)N(Cc1ccco1)Cc1cc2ccccc2[nH]c1=O | / | 0
CCN(C(=O)Nc1ccccc1)C1CCCCC1 | -1.2 | 2.2
Cc1c(C(=O)N2CCC3(CC2)OCCO3)sc2ncnc(N3CCC(C)CC3)c12 | 0.185 | /
O=C1/C(=C/c2ccccc2O)CC/C1=C\c1ccccc1O | / | 0.5
CCOC(=O)c1ccc(NC(=O)Cn2c(=O)oc3cc(S(=O)(=O)N4CCCC4)ccc32)cc1 | -0.895 | 0.1
Cc1cc(-c2ccc(S(=O)(=O)N3CCC(C)CC3)cc2)on1 | -0.31 | -0.25
Cc1ccc(OCCOc2ncnc3sccc23)cc1 | / | -0.15
CNCc1cccs1 | / | 1.35
O=C1CS(=O)C(c2ccccc2)C(=O)N1c1ccc(Cl)c(Cl)c1 (stereo not given) | -0.34 | /
CC(=O)OC(C#N)[C@H]1O[C@@H]2OC(C)(C)O[C@@H]2[C@H]1OC(C)=O (stereo not given in full) | 0.36 | -0.6
O=S(=O)(c1ccccc1)c1nc(N(CCO)c2ccccc2)sc1Cl | / | 0.35
C/C(=N\NC(=O)c1sccc1-n1cccc1)c1cccc(C(F)(F)F)c1 | -0.99 | /

At a glance, some entries already given:
SMILES | CapD inh | AID504770
O=C1/C(=C/c2ccccc2O)CC/C1=C\c1ccccc1O | / | 0.5
CCOC(=O)c1ccc(NC(=O)Cn2c(=O)oc3cc(S(=O)(=O)N4CCCC4)ccc32)cc1 | -0.895 | 0.1
Cc1cc(-c2ccc(S(=O)(=O)N3CCC(C)CC3)cc2)on1 | -0.31 | -0.25
Cc1ccc(OCCOc2ncnc3sccc23)cc1 | / | -0.15

Next part:
SMILES | CapD inh | AID504770
Cc1cc(CN)c2[nH]c(C)c(C)c2c1 | / | -0.75
Cc1c(CCC(=O)O)c(=O)[nH]c2ccccc12 | / | 1.8
Cc1ccc(C(=O)NNC(=O)C(=O)c2c(-c3ccccc3)[nH]c3ccccc23)cc1 | -0.325 | /
CN(C(=O)Oc1ccccc1)c1ccc(C(O)(C(F)(F)F)C(F)(F)F)cc1 | 0.205 | -0.2
CCCCc1c(C)nc(SCc2ccccc2)[nH]c1=O | 0.9 | 0.65
O=C(c1ccc(Cl)c(S(=O)(=O)N2CCOCC2)c1)N1CCN(c2ccccc2F)CC1 | / | -0.1
O=C(CC1Sc2ccccc2NC1=O)N/N=C/c1ccc(F)cc1 (stereo not given) | 0.255 | /
CC(CN(C)C)OC(=O)c1ccc2c(c1)OCO2 (stereo not given) | / | 0.55
O=S(=O)(Cc1ccc(Cl)cc1)c1cccs1 | -0.14 | 0.5
OCC(O)C1OC(c2ccccc2)OCC1O (stereo not given) | 0.275 | 0.25
O=C1CCc2cc(-c3csc(/N=C/NO)n3)ccc2N1 | -0.29 | 2.55
Cc1nnc(SCC(=O)Nc2cccc(C(F)(F)F)c2)o1 | -0.34 | 1.05
COc1ccc(-c2cc(-c3ccc(Br)cc3)[nH]c(=O)n2)cc1 | 22.5 | 0.55
N#C/C(=C/C=C/c1ccco1)c1nc2ccccc2[nH]1 | / | -0.1
C=CCSc1nc2ccccc2c(=O)n1-c1cc(OC)c(Cl)cc1Cl | -0.57 | /
CC(C)(C)OC(=O)NCc1cccs1 | / | 0.95
C/C(N)=C(/C#N)C(=O)COc1ncnc2c1cnn2-c1ccccc1 | / | 0.25
O=C(Nc1ccc(-c2nc3ccccc3[nH]2)cc1)c1c(F)cccc1F | 16.9 | 0.65
CCCc1nnc(NC(=O)c2oc3cc(C)c(C)cc3c2C)s1 | / | -0.4
O=C(NC1CCCC1)c1ncoc1-c1ccc2ccccc2c1 | / | -0.5
NC(=O)NCc1cccc(Cl)c1 | 0.44 | /
N#Cc1ccc(COC(=O)c2cnc3sccn3c2=O)cc1 | / | -0.5
CCCC(C(=O)OCCN(CC)CC)(c1ccccc1)c1ccccc1 | -0.215&-0.49 | 0.2
COc1ccc(-n2c(SCC(=O)N3CCCc4ccccc43)nc3c(c2=O)SCC3)cc1OC | / | 0.45
O=C(CSc1nnc(-c2ccc(C(F)(F)F)cn2)o1)Nc1ccccc1 | 0.055 | -0.7
O=C(CCn1c(=O)oc2ccccc21)N1CCN(c2ccc(F)cc2)CC1 | -0.935 | 0.75
NC(=O)C(Cc1ccccc1)NS(=O)(=O)c1cc(Cl)c(Cl)s1 (stereo not given) | -0.04 | /
O=C(CCC1CCCC1)OCC(=O)N1CCOCC1 | 0.685 | 0.55
COc1cccc(-c2nnc3n2CC(C)S3)c1 (stereo not given) | 0.335 | -0.3
O=C(O)c1[nH]c2ccc(Cl)cc2c1CC(=O)N1CCC2(CC1)OCCO2 | -0.04 | 1.7
COc1ccc2ccccc2c1/C=N/NC(=O)COc1ncn(-c2ccccc2)n1 | 9.23 | /
Cc1cc(C)n(-c2nc3ccccc3nc2NCCc2ccccc2)n1 | 0.195 | 1.4
CCOc1ccc2nc(SCC)[nH]c2c1 | 0.395 | 0
CC(=O)N1CN(C2CCCC2)Cc2c1sc1c2CCCC1 | / | -0.55
Cc1ccc(C(=O)Nc2cccc(C(=O)O)c2)cc1 | -0.2 | -0.85
CC(=O)N1N=C(c2ccncc2)OC1c1cn(-c2ccccc2)nc1-c1cccs1 (stereo not given) | -0.455 | 0.7
COC(=O)c1c(C)oc2ccc(O)cc12 | 0.55 | 0.85
CCCCn1c(=O)[nH]c2nc3cc(N=Cc4c(O)n(C)c(=O)n(C)c4=O)ccc3nc2c1=O | -0.95 | -1.65
O=C(NCCCO)Nc1c[nH]c2ccccc2c1=O | / | 0.35
COc1cc(C(=O)O)cc(OC)c1OCc1cc(C(=O)O)oc1C | 0.37 | 0.3
CCn1c(=NC(=O)c2ccc(N(C)C)cc2)sc2cc(Cl)ccc21 | 4.25 | -0.5
CC1CC(C)CN(S(=O)(=O)c2cccc3nsnc23)C1 (stereo not given) | -0.67 | /
COc1ccc(-c2nc(-c3cccc(C)c3)no2)cc1OC | -0.395 | 1.15
CN1CCN(C(=O)CCC(=O)N(C2CC2)C2CCN(Cc3ccccc3)CC2)CC1 | -0.72 | /
C/C(Cc1ncn(-c2cc(C)on2)n1)=N\O | -0.055 | -0.5
CCOC(=O)C1CCCN(Cc2cn3c(-c4cccc(Br)c4)nnc3s2)C1 (stereo not given) | / | 0.2
O=C(Cn1c(=O)oc2ccccc21)Nc1ccccc1Cl | 0.07 | -0.45
Cc1nc2c(c3c1[nH]c1ccccc13)C(O)CC(C)(C)C2 (stereo not given) | 72.9 | /
COc1ccccc1N(CN1CCCC1=O)C(=O)COc1ccc(Cl)cc1Cl | / | -0.95
CC(C)Nc1nc(NC(C)C)nc(Sc2nn(C)c(=S)s2)n1 | -0.41 | 1
CNc1ccc(C(O)(C(F)(F)F)C(F)(F)F)cc1 | -0.135 | -0.05
Fc1ccc(Sc2nc(-c3ccccc3)nnc2C(F)(F)F)cc1 | -0.79 | /
Cc1noc(-c2ccccc2OC(=O)c2ccccc2)n1 | 6.82 | 0.05
O=C(NCc1cccnc1)c1cnn2ccccc12 | 23.3 | 0.75
COc1ccc2[nH]cc(C(=O)O)c(=O)c2c1 | 0.165 | -1.95
S=C(NCCNC(=S)Nc1cccc(Cl)c1)Nc1cccc(Cl)c1 | -0.185 | /
S=c1sc2c(s1)SC1CC=CC1S2 (stereo not given) | 0.815 | /
Cc1cc(C(=O)COC(=O)c2ccc3c(c2)C(=O)N(CCC(C)C)C3=O)c(C)n1-c1nccs1 | / | 0.75
CC1(C)CC(=O)C2=C(C1)OC(N)=C(C#N)C2c1ccccc1OCc1ccc(Cl)cc1 (stereo not given) | -0.54 | /
O=C(N/N=C/c1ccnc2ccccc12)c1cc(C2CC2)nc2ccccc12 | 2.01 | /
New compounds follow.
SMILES | CapD inh | AID504770
Ic1ccc(-c2nc(-c3ccccc3)c(-c3ccc(-c4ccccc4)cc3)[nH]2)cc1 | 6 | /
NC(=O)c1cc(S(=O)(=O)NC2CCCCCCC2)cs1 | 0.235 | 0.1
NC(=O)C1CCN(C(=O)CSCc2ccc(Br)cc2)CC1 | -0.11 | -1
O=C(Nc1c2c(nn1-c1ccc(F)cc1)CSC2)c1ccc(S(=O)(=O)N2CCOCC2)cc1 | -0.275 | /
Cc1cccn2cc(CNC(=O)CC3CCCCC3)nc12 | / | -0.7
CN1C(=O)C(=Cc2cc3c(cc2Br)OCO3)C(=O)N(C)C1=O | -0.09 | /
O=C(CC1CCCC1)Nc1nc2ccccc2s1 | / | -0.35
N#CSCCCOc1ccc(Cl)cc1 | 0.205 | 1.55
Cc1cc(C)nc(NC(N)=NCc2ccccc2)n1 | 2.46 | 0.3
COc1cc(-c2nc3ccccc3c(=O)n2NC(=O)c2ccc(Cl)c([N+](=O)[O-])c2)cc(OC)c1OC | -0.215 | /
CC(C)(C#N)N1CCN(C(c2ccccc2)c2ccccc2)CC1 | 0.325 | 0.1
Cn1nccc1NC(=O)CC(C)(C)CC(=O)O | 1.12 | 1.25
O=C(O)C1CC(=O)N(c2cccc3ccccc23)C1 (stereo not given) | 2.14 | -0.85
COc1ccc(NC(=O)C2(c3ccc(OC)cc3)CCOCC2)cc1 | / | -0.45
COC(=O)C1=CN(C2CC2)C=C(C(=O)OC)C1c1cccc(OC)c1 | 30.5 | -0.2

The closing four entries of the part before open the next one:
SMILES | CapD inh | AID504770
Cn1nccc1NC(=O)CC(C)(C)CC(=O)O | 1.12 | 1.25
O=C(O)C1CC(=O)N(c2cccc3ccccc23)C1 (stereo not given) | 2.14 | -0.85
COc1ccc(NC(=O)C2(c3ccc(OC)cc3)CCOCC2)cc1 | / | -0.45
COC(=O)C1=CN(C2CC2)C=C(C(=O)OC)C1c1cccc(OC)c1 | 30.5 | -0.2
NC(=O)c1ccccc1NC(=O)CSc1ccc2ccccc2c1 | 2.19 | 0.85
O=S(=O)(c1cccs1)N1CCN(Cc2ccccc2)CC1 | -0.35 | -1.25
Nc1nonc1C1=NOC(c2nonc2N)=NO1 | / | -1.4
Cc1ccc2oc(C(=O)O)cc(=O)c2c1 | 4.13 | -1.35
CC(=O)N1CCc2cc(S(=O)(=O)N=S(C)(=O)c3ccc(C)cc3)ccc21 (stereo not given) | -0.17 | 0.9
CC(C)(C)c1csc(N)n1 | 0.195 | /
O=C(CN1CCN(c2ccccn2)CC1)N(c1ccccc1)c1ccc2ccccc2c1 | / | -0.4
CCNC(=S)Nc1c(C)cc(C)cc1C | -0.15 | /
Nc1ccc(-c2nc3cc(Cl)ccc3o2)c(O)c1 | 41 | -0.05
CC1=CC(C)(C)N=C(Nc2nc(C)c3cc(C)cc(C)c3n2)N1 | 7.08 | -0.9
CSc1nc(N2CCOCC2)nc(-c2ccccc2)c1C#N | 0.395 | /
CCCn1cnc2scc(-c3ccc(OC)cc3)c2c1=O | 4.45 | 2.15
COc1ccc(N2CCN(C3CC(=O)N(CCc4ccccc4)C3=O)CC2)cc1 (stereo not given) | 0.3 | -0.3
CCCN(C(=O)Cn1ncc2c1-c1ccccc1OC2)c1ccccc1F | -0.735 | -1
COc1ccc(C2CC(c3ccc(Br)cc3)=NN2C(=O)CSc2nnc(CNC(=O)c3ccco3)n2C)cc1 (stereo not given) | 0.4 | /
CC(NC(=O)COc1ccccc1)C(=O)O (stereo not given) | 0.51 | 1.3
O=C(CSc1nc(-c2ccccc2)cc(-c2ccccc2)n1)N=C1NC(=O)CS1 | 0.605 | 0.75
CC1=CC(C(C#N)C#N)C=C(c2ccccc2)O1 (stereo not given) | -0.585 | -0.85
c1ccc2c(CNC3CCCC3)c[nH]c2c1 | 0.25 | 0.8
Cn1c(C(C#N)c2cnn(-c3ccccc3)c(=O)c2Br)nc2ccccc21 (stereo not given) | / | -0.85
COc1ccc(C(=O)NN2CC(=O)N(C(C)C)C2=O)c2ccccc12 | / | 0.05
c1ccc(N2CN3CN2CN3c2ccccc2)cc1 | -1.44 | 1.5
COc1ccc(C2CC(=O)NC(SCC(=O)Nc3ccc(Br)cc3)=C2C#N)cc1 (stereo not given) | -0.03 | /
NC(=O)C1CCCN(C(=O)Nc2c[nH]c3ccccc3c2=O)C1 (stereo not given) | / | -1
O=C(O)C(Cc1cnc[nH]1)NC1CNN=C1c1ccc(Cl)cc1 (stereo not given) | 0.445 | 0.1
Cc1ccc(/C=C2/NC(=O)N(Cc3ccc(Br)cc3)C2=O)o1 | 0.48 | 1.95
CN(C)c1ccc(/C=C/CN2CCCCCC2)cc1 | 3.49 | -0.7
Cc1cccc(N2C(=O)NC(=O)/C(=C/c3cn(CC(=O)Nc4ccccc4)c4ccccc34)C2=O)c1 | -1.37 | /
CCOC(=O)NC(=S)Nc1ccc(NC(=O)c2cc(Cl)ccc2O)c(Cl)c1 | 1.02 | 0.05
CCn1c(=O)c(CCc2ccccc2)nc2cc(S(=O)(=O)N(C)C)ccc21 | / | -1.05
CN(C)S(=O)(=O)NC1CC(=O)N(c2ccc(F)cc2)C1 (stereo not given) | / | -1.35
COc1ccc(C2CC(=O)C3=C(C2)Nc2ccccc2NC3c2ccc(O)c([N+](=O)[O-])c2)cc1OC (stereo not given) | -1.46 | /
CC(C)N1C(=O)S/C(=C/c2ccc3c(c2)OCCO3)C1=O | 0.25 | -0.75

Profiles, quoted from the list.
COc1ccc(C2CC(=O)C3=C(C2)Nc2ccccc2NC3c2ccc(O)c([N+](=O)[O-])c2)cc1OC (stereo not given) in the list: CapD inh = -1.46; AID504770 = /
O=C(CSc1nc(-c2ccccc2)cc(-c2ccccc2)n1)N=C1NC(=O)CS1 in the list: CapD inh = 0.605; AID504770 = 0.75
